High-throughput results deposited in PubChem BioAssay by National Center for Advancing Translational Sciences (NCATS).
D2 agonist: human D2 receptor agonism in beta-arrestin assay | DiscoveRx PathHunter D2 beta-arrestin, luminescence, 90 min; 100% = 57 uM dopamine signal | activation, % (test concentration not listed) | 0.084% of 360,000 active | AID 624465; in the data active = activation above about 40%; inconclusive = about 15% to 40%; inactive = below about 15%; note: compound concentration not given in the record; the text of the record calls up to 30% inactive
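DiscoveRx PathHunter D2 beta-arrestin cells (2,100/well) attached overnight, then compound-stimulated 90 min at 37 C in HBSS/10 mM HEPES/0.1% Tween-20 buffer; beta-galactosidase complementation read by luminescence after 1 h at ambient temperature. Dopamine 57 uM final (EC100) as control.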
TRPML1 ag: agonists of human TRPML1 channel | AID 624414 | TRPML1-expressing cells, Ca2+ dye fluorescence, FDSS; host cell line not named in the record; reference of the full effect not given here | 0.12% of 410,000 active | Q9GZU1 | activation, % (no concentration beside the values); in the data active = activation above about 50%; inconclusive = about 30% to 50%; inactive = below about 30%; note: 0% is about no effect; the text of the record puts the active cut at 80%
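In this qHTS format, compounds were pin-transferred onto Ca8-dye-loaded TRPML1-DL cells induced with Tet overnight, and intracellular Ca2+ fluorescence was recorded kinetically for 110 s after a 10 s baseline. A subsequent 4uM final 54-4 (EC80) addition followed by a second 110 s read served as the antagonist phase.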
CtBP-E1A inh: blocks the CtBP interaction with E1A; 0.49% of 340,000 active; activity change, % (no concentration beside the values); AlphaScreen GST-E1A/His-CtBP binding, 1536-well; active compounds read low; control for the full effect not named in the record; AID 651724; in the data active means activity change below about -65%; inconclusive means about -30% to -65%; inactive means above about -30%; note: % is set by controls: 0 for no effect and ±100 for the full control effect
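In 5 uL wells, 23 nL compound meets equimolar GST-E1A and His-CtBP (5X stock 125 nM each) for 2 h, 37 °C. Beads (5X, 50 ug/mL) then 1 h, 37 °C, dark.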
D2 potentiator: human D2 receptor positive allosteric modulation | DiscoveRx D2 beta-arrestin cells, luminescence, 90 min; 100% = 57 uM dopamine signal | potentiation, % (test concentration not listed) | 0.23% of 360,000 active; active = potentiation of 50% or more; inconclusive = 30% to 50%; inactive = 30% or less;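 note: compound concentration not given in the record; tested on top of an EC20 dose of dopamine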
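D2 cells co-treated with compound plus 50 nM dopamine (EC20) for 90 min at 37 deg C to detect potentiation. Beta-arrestin recruitment was read as enzyme-fragment luminescence after 1 h at ambient temperature. Full response was set by 57 uM dopamine.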
PINK1 modulator: changes PINK1 expression; AID 624263; Potency, µM (series often up to 76.6 µM), inactives show top-dose activation (PINK1 increase), hits mostly activators; PINK1 immunofluorescence, high-content cytometry, 24 h; 0.2% of 410,000 active; active = well fitted activation curve with a large enough effect; inconclusive = small, poorly fitted or top-dose-only effect; inactive = flat fitted curve, though single readings scatter; cell line not stated here;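 note: potency is the fitted concentration of half-maximal effect; % of control where 0% means no effect; nearly all actives have a fitted effect of over 65% in size; a mitochondrial uncoupler was the plate control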
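Compound titrations (5 concentrations, 24 h) on a stable cell line; DMSO and CCCP controls. Endpoint: fixed-cell PINK1 immunofluorescence with mitochondrial, cell and nuclear markers, scanned by microplate cytometer.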
Six1-Eya2 inh: inhibitors of human Six1/Eya2 interaction | Q15475+O00167 | AlphaScreen GST-Six1/His-Eya2 binding, biochemical; active compounds read low; control for the full effect not named in the record | activity change, % (test concentration not listed) | 0.56% of 360,000 active | AID 651725; in the data active = activity change below about -65%; inconclusive = about -30% to -65%; inactive = above about -30%; note: % is set by controls: 0 for no effect and ±100 for the full control effect
Target sequence (O00167 whole entry, looked up): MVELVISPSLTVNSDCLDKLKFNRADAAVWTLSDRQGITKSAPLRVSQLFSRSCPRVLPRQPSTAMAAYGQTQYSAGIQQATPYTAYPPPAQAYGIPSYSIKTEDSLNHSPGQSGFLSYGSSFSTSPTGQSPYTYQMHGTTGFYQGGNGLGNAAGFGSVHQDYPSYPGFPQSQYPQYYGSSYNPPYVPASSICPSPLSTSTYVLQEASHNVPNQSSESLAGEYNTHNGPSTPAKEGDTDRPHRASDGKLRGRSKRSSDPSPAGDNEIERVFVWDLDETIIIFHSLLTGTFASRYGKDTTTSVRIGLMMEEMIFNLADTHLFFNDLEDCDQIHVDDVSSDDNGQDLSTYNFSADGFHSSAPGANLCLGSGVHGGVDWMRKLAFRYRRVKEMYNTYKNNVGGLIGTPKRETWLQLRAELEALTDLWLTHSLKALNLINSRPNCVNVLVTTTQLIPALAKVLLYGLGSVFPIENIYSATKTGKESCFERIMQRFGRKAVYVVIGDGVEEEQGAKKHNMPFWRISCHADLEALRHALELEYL
Target sequence (Q15475 whole entry, looked up): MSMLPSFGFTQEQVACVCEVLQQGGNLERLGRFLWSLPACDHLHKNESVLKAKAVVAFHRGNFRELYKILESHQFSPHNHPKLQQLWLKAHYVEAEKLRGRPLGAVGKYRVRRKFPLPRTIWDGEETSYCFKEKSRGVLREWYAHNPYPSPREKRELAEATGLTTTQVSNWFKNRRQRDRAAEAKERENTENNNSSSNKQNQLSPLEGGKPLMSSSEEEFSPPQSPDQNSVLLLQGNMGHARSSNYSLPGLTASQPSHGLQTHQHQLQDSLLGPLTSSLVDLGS
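AlphaScreen with GST-Six1 and His-Eya2 (5X mix: 250 nM and 500 nM), glutathione donor and nickel acceptor beads; buffer 50 mM Tris pH 8.0, 300 mM NaCl, 1 mM TCEP; 1 h at 37 C in the dark.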
Starred values were filed as active, the others as inactive; ? = inconclusive; . = not tested or not shown; & = joins results of further samples; [ ] = another dose, or the depositor's remark. Rows are unselected; about 1.3% have a hit in one of these screens.

Each structure is followed by: D2 agonist	PINK1 modulator	TRPML1 ag	CtBP-E1A inh	Six1-Eya2 inh	D2 potentiator
- Cc1ccccc1CN1C[C@@H]2C[C@@H](c3ccc4nsnc4c3)N3CCC[C@@]23C1=O
 : -5.3	-0.9%	2.2	.	-4	-9
- CC(=O)NC(c1ccccc1)c1nc(-c2cccnc2)cs1 (stereo unspecified)
 : 1.6	-0.2%	-0.9	6	1	2
- c1csc(-c2ccc3nncn3c2)c1
 : -4.0	-0.8%	-0.2	-14	-3	-3
- CC(=O)NCCNc1nc(NCc2ccccc2)nc2ccsc12
 : -1.2	0.6%	11	6	3	-5
- COc1cccc(C2CC(c3cccs3)=NN2C(=O)CSC2=NCCS2)c1OC (stereo unspecified)
 : 6.5	-1.2%	2.3	0	13	-25
- CCc1ccc(CNC(=O)c2ccc(NC(=O)C3=CSCCO3)cc2)cc1
 : 2.0	2.0%	-1.2	-1	-3	-9
- Cc1cccc(NC(=S)N2CCN(c3ccccn3)CC2)c1
 : 1.1	0.2%	.	.	3	11
- CC(/C=N/Nc1nc(N2CCCCC2)nc(N2CCCCC2)n1)=C\c1ccccc1
 : -3.0	.	0.4	8	0	5
- N#CC1(c2ccccc2)CCCN1C(=O)c1ccccc1Br (stereo unspecified)
 : -2.9	-1.3%	-0.4	1	28	-37
- O=C1NC(=O)C2(N1)c1ccccc1-c1ccccc12
 : -1.4	-3.7%	0.2	4	6	-12
- Cn1c(-c2ccccc2)c(C(=O)CC#N)c2ccccc21
 : -2.9	0.0%	0.4	7	6	-6
- O=c1c2ccccc2n2c(-c3cccc(F)c3)nnc2n1Cc1ccccc1
 : -0.4	1.2%&6.7%	-1.1&0.5	5	9	-11
- Nc1ccc(C2(c3ccc(N)cc3)OC(=O)c3ccccc32)cc1
 : 0.1	-1.4%	-0.8	-2	-6	-2
- COc1ccc(-n2c3c(cc(C(=O)N4CCC(C)CC4)c2=O)C(=O)CC(C)(C)C3)cc1
 : 1.1	2.3%	0.0	2	0	0
- Cc1ccc(C(=O)COC(=O)c2cccc(NC(=O)c3ccc([N+](=O)[O-])cc3[N+](=O)[O-])c2)cc1
 : ?	-4.0%	-1.0	?	-9	122*
- Cc1nc2nc(COc3ccccc3)[nH]n2c(=O)c1Cl
 : 0.7	-1.6%	1.9	-7	5	4
- COc1ccc(NC(=S)N2CCC(c3ccc(C)cc3)C2)cc1 (stereo unspecified)
 : 1.3	2.2%	1.1	-17	-9	-4
- Cc1ccc(NS(=O)(=O)c2ccc(CCC(=O)NCc3cccnc3)cc2)cc1
 : -5.4	-3.1%	0.3	-16	2	-1
- COc1cc(/C=N/O)cc(Br)c1OC
 : -4.4	-1.0%	0.6	0	1	4
- COc1ccc(C2SCC(=O)N2c2nnc(C34CC5CC(CC(C5)C3)C4)s2)cc1 (stereo unspecified)
 : 1.3	2.7%	1.0	9	6	11
- Cc1ccc2c(c1)N(CC(=O)NC1CCC(C)CC1)C(=O)CO2 (stereo unspecified)
 : -3.0	3.6%	-0.3	9	-3	-15
- O=C(CCn1cnc2ccccc2c1=O)Nc1ccc(S(=O)(=O)N2CCCC2)cc1
 : -0.2	1.3%	-0.2	4	1	-18
- CCCn1nc(NC(=O)c2ccco2)c2cc3cc(C)ccc3nc21
 : -1.2	3.1%	5.4	27	29	3
- O=C(CCCC(=O)N1CCN(c2cccc(Cl)c2)CC1)c1ccccc1
 : 2.8	-2.8%	6.0	-1	-7	0
- COc1ccc(NC(=O)CN2CCN(C(=S)NC3CCCC3)CC2)cc1
 : -0.5	1.2%	-0.5	2	0	-6
- CC(=O)N[C@@H](C)C(=O)N1CCN(S(=O)(=O)c2ccc(Cl)cc2)CC1
 : 10	0.3%	-0.1	3	8	2
- Nc1nc2ccc(Cl)cc2o1
 : 0.3	-4.1%	-0.1	-1	6	-10
- CC1(C)N=C(c2cccs2)C(C)(C)N1O
 : -1.9	8.9%	-0.2	12	9	1
- O=[N+]([O-])c1ccc(Oc2ncccn2)cc1
 : -0.2	1.9%	0.0	11	7	-8
- Cc1ccc(NC(=O)c2noc3c2CCCCC3)cc1
 : -1.1	7.9%[38.3 µM]	0.5	9	5	-4

Grouped by structure, the entries above containing bromine (2)
Each structure is followed by: D2 agonist	PINK1 modulator	TRPML1 ag	CtBP-E1A inh	Six1-Eya2 inh	D2 potentiator
- N#CC1(c2ccccc2)CCCN1C(=O)c1ccccc1Br (stereo unspecified)
 : -2.9	-1.3%	-0.4	1	28	-37
- COc1cc(/C=N/O)cc(Br)c1OC
 : -4.4	-1.0%	0.6	0	1	4

Additional compounds follow:
Each structure is followed by: D2 agonist	PINK1 modulator	TRPML1 ag	CtBP-E1A inh	Six1-Eya2 inh	D2 potentiator
- CCCn1c(SC2C(=O)CC(C)(C)CC2=O)nc2c1c(=O)n(C)c(=O)n2C
 : 0.2	0.7%[38.3 µM]	0.3	83	19	-4
- CCOC(=O)c1cnn(-c2ccccc2)c1-c1ccncc1
 : -4.9	-0.1%	-0.8	-1	6	-6
- O=C(COc1ccccc1)NNC(=O)c1ccc(Cl)cc1
 : 4.7	1.0%	1.8	0	1	-3
- CC(C)C[C@H]1CNC(=O)C(=O)N1C[C@H](Cc1ccc(O)cc1)NC(=O)Cc1ccccc1
 : .	-0.3%	-0.4	-2	11	.
- Cc1c(C(=O)O)sc(=S)n1CCOc1ccccc1
 : -0.7	.	0.7	4	6	6
- Cc1ccc(-n2c(SCC(=O)Nc3cc(C)on3)nc3ccccc3c2=O)cc1
 : 2.0	22%[38.3 µM]	0.0	-3	1	5
- O=C(Cn1cc(C(F)(F)F)ccc1=O)NC(c1ccccc1)c1ccccc1
 : 0.4	7.6%	1.5	0	18	-9
- CCCOC(=O)C1[C@H]2C(=O)N(CCCOC)C[C@]23C=C[C@H]1O3 (stereo partly specified)
 : -3.2	0.3%[38.3 µM]	-0.1	8	3	-20
- COc1cccc(CNC(=O)Cn2c(=O)oc3ccccc32)c1OC
 : -4.9	1.0%	-0.7	4	0	0
- Cc1ccc(NC(=O)/C=C/c2ccco2)nc1
 : 0.5	7.4%	0.9	-15	-7	-19
- O=C(Nc1ccc(N2CCN(C(=O)c3ccco3)CC2)cc1)c1cc(Br)ccc1Cl
 : 0.6	8.8%	1.7	-6	-19	4
- O=C(Nc1nc2c(s1)CCCC2)c1cccs1
 : 0.1	0.2%	-0.5	-2	0	10
- Cc1cccc(NC(=O)COc2cccc3c2CCN(C)C3=O)c1C
 : -1.7	-0.7%	-0.7	7	-10	3
- O=C(CN1C(=O)NC2(CCCCCCC2)C1=O)Nc1ccc(Br)cc1Br
 : 3.7	1.7%	2.4	1	-2	2
- COc1ccc(CCN(C)C(=O)CSc2nnc(-c3ccco3)o2)cc1OC
 : -1.5	-2.5%	-0.4	7	-3	-13
- CCC(C)NC(=O)CSc1nc2ccsc2c(=O)n1NC(=O)c1ccccc1 (stereo unspecified)
 : -2.7	7.5%[38.3 µM]	-0.4	11	8	-7
- Cc1c(Br)c([N+](=O)[O-])nn1CC(=O)Nc1sc2c(c1C(=O)OC(C)C)CCC(C)C2 (stereo unspecified)
 : -4.6	3.5%	-0.7	-3	0	-4
- C=CCN1C(=O)C(Cc2ccccc2Cl)SC1=Nc1ccc(C(=O)O)cc1 (stereo unspecified)
 : 2.6	0.0%	.	-1	3	-2
- Cc1ccc(-n2nc3ccc(NC(=O)c4cccc([N+](=O)[O-])c4C)cc3n2)cc1
 : 0.7	0.0%	1.0	1	1	-5
- COc1ccc(C(=O)O/N=C(/c2ccccc2)c2ccncc2)cc1
 : ?	6.0%	2.9	.	4	-4
- CC(Oc1cccc(Br)c1)C(=O)NNC(=O)CCS(=O)(=O)c1ccccc1 (stereo unspecified)
 : -2.2	2.1%	-1.2	.	1	-3
- CC(=O)c1c(C)[nH]c(C(=O)OCC(=O)Nc2ncc(Cl)c(C)c2Cl)c1C
 : -1.0	-1.0%	-0.2	-7	-5	7
- NNC(=O)c1nnn(-c2nonc2N)c1CN1CCCC1
 : 0.5	4.6%	.	.	4	3
- COc1cc(NC(=O)c2ccccc2)ccc1NC(=O)c1cc2ccccc2o1
 : -0.4	9.0%&9.6%	-0.8&-0.5	4	1	-5
- Cc1nc(-c2cccc(N)c2)cs1
 : -3.3	-1.2%	-0.2	1	0	-5
- COc1ccccc1CNC(=O)CN1C(=O)NC(c2ccccc2)(c2ccc(C)c(C)c2)C1=O (stereo unspecified)
 : -1.4	5.6%	4.9	2	26	-22
- CC(C)(Cl)C1Cc2cc3ccc(=O)oc3cc2O1 (stereo unspecified)
 : -1.5	.	0.2	-3	4	-5
- O=C(NC1CC(=O)c2sccc21)c1ccc(Cl)cc1Cl (stereo unspecified)
 : -0.7	4.4%	-0.3	6	4	-6
- CC(=O)C1=C(C)NC(=O)NC1c1ccc2c(c1)OCO2 (stereo unspecified)
 : -0.5	4.4%	0.6	1	4	-6
- COc1ccc(/C=N/N=C(\N)c2nonc2N)cc1
 : -6.5	0.6%	1.6	2	-4	-7
- CC(C)Cc1cc(C(=O)Nc2ccc3c(c2)OCO3)no1
 : 1.5	6.9%	0.6	1	0	-5
- O=C(CSc1nnc2ccccn12)N1CCOCC1
 : -1.0	4.0%[38.3 µM]	-0.7	3	1	-7
- O=C(CN1CCN(CN2C(=O)NC3(CCCCCC3)C2=O)CC1)Nc1ccc(F)cc1
 : -3.1	2.6%	1.5	-24	4	-3
- Cc1ccccc1C(=O)c1cccn1CC(=O)NCCCN1CCc2ccccc2C1
 : 0.1	0.5%	0.0	20	0	-25
- O=C(NCCc1ccccc1)c1c[nH]c2ccc(F)cc2c1=O
 : 11	3.1%	-0.8	-4	0	12
- O=C(Nc1nccs1)c1ccc2ccccc2n1
 : -2.3	0.3%	-0.5	-10	-7	-1
- CSc1nnc2c3ccccc3n(CCc3ccccc3)c2n1
 : -0.6	6.9%	5.6	-28	-12	-10
- NC(=O)c1ccsc1NC(=O)COC(=O)Cc1ccsc1
 : -1.0	-0.5%	0.0	-6	-9	-2
